Ba CapD inh = Bacillus anthracis CapD inhibitors, primary screen, biochemical, fluorescence intensity; AID 492967, 2010; CapD gamma-glutamyltranspeptidase (Bacillus anthracis Ames Ancestor); 140,000 tested, 0.23% active; z-score (concentration not given with the values); purified CapD enzyme, fluorescence intensity read-out; active compounds read low; some hits fall short of the stated cut;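 active = z-score under -4 in either of two replicates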;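 note: stock transfer was 100 nL into about 40 µL; score is relative to mean and spread of the plate; one replicate is shown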
AID504770 = growth inhibition of E. coli YBA685, primary screen, V. cholerae RctB inhibitors; 130,000 tested, 0.27% active; AID 504770, 2011; z-score (concentration not given with the values); E. coli YBA685 rctB-dependent plasmid, OD600 growth, 3 h; active compounds read low;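 active = z-score under -2 on both plates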;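 note: wells of about 30 µL received 100 nL stock; score is relative to mean and SD of the test wells; the first replicate is given; strong numbers were not always called active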
Starred values were filed as active, the others as inactive; . = not tested or not shown. This is a subset. The share of hits here may be higher or lower than overall.

SMILES	Ba CapD inh	AID504770
O=c1[nH]ncc(N2CCCCC2)c1Cl	.	0.25
CC(=O)C1=NN(c2ccc(Cl)cc2)C2(S1)c1ccccc1C(c1ccc(C)cc1)=NN2c1ccccc1 (centres undefined)	-0.16	.
CC(C)(C)c1ccc(C(=O)Nc2cc(C(=O)Nc3ccccc3F)ccc2N2CC3CC(C2)c2cccc(=O)n2C3)cc1 (centres undefined)	-1.4	.
Nc1c(N(Cc2ccco2)C(=O)c2ccccc2)c(=O)[nH]c(=O)n1Cc1ccccc1	.	0.6
CC(Cc1cccs1)NC(=O)Nc1ccccc1 (centres undefined)	.	1.9
COc1ccc(CCNC(=O)CCn2c(SCC#N)nc3ccccc3c2=O)cc1OC	-0.24	-0.9
Cc1nc(C(N)=NC(=O)c2ccccc2)cs1	0.08	-0.85
COc1cc(OC)cc(C(=O)Nc2cccc3nsnc23)c1	-0.53	0
CCCCCCCCCCCCSC(=S)c1c(C)[nH]n(-c2ccccc2)c1=O	0.23	.
O=C(NC1CCCC1)c1ccc(COc2cc(Cl)ccc2Cl)o1	-0.14	-0.9
CNC(=O)c1cccc2cccc(Sc3ccccc3C(=O)OC)c12	-1.5	-0.9
O=[N+]([O-])c1cc(C(F)(F)F)ccc1N1CCCCC1	0.58	.
CC(=O)Nc1cccc(N(C)S(C)(=O)=O)c1	-1.3	2.4
CCCC(=O)Nc1sc(C(=O)Nc2cccc(C)c2C)c(C)c1C#N	3.1	0.5
FC(F)(F)c1cccc(-c2nnnn2-c2cccc(Cl)c2)c1	0.58	-1.2
CCNc1nc(NC(C)C)nc(SCCOc2ccccc2)n1	-0.55	.
CN(C)/C=C/C(=O)C1=NOC(CNc2ncc(C(F)(F)F)cc2Cl)C1 (centres undefined)	-1.7	.
COC(=O)CCC(=O)N(C1CC1)C1CCN(Cc2ccccc2)CC1	-0.32	.
Cn1c(CNc2ccccc2)nc2ccccc21	-0.27	-1.4
O=C(NC(=S)Nc1ccccc1Cl)c1ccc(Cl)cc1	0.39	0
CCOC(=O)Nc1ccc(C)s1	0.055	0.9
Cc1cc(C(=O)O)c(C)n1Cc1ccccc1	-0.52	2.5
CCCCOc1ccc(NC(=O)C2OC3OC(C)(C)OC3C3OC(C)(C)OC23)cc1 (centres undefined)	-0.12	.
Cc1nc(C)c(C(=O)NC2CCCCCC2)s1	-0.29	0.55
CC12CCC(CC(=O)c3ccccc3)(CC1)CC2	1.3	0.8

Structural class: the entries above containing a thiophene ring, fused or not
SMILES	Ba CapD inh	AID504770
CC(Cc1cccs1)NC(=O)Nc1ccccc1 (centres undefined)	.	1.9
CCCC(=O)Nc1sc(C(=O)Nc2cccc(C)c2C)c(C)c1C#N	3.1	0.5
CCOC(=O)Nc1ccc(C)s1	0.055	0.9

Next part
SMILES	Ba CapD inh	AID504770
COc1ccc(NC(=O)CCn2c(=O)[nH]c3ccccc3c2=O)cc1OC	0.04	-0.35
Cc1cc(OC(=O)c2ccco2)nc(SCc2c(Cl)cccc2Cl)n1	-0.015	-0.3
COC(=O)c1ccc(CNC(=O)c2ccc(Oc3ccccc3)cc2)cc1	-0.49	1.8
CCCCCOC(=O)C1=C(C)NC2=C(C(=O)CCC2)C1c1cc(Br)c(O)c(OCC)c1 (centres undefined)	19	.
CCOC(=O)N1CCN(c2ncnc3c2c(-c2ccccc2)cn3-c2ccc(Cl)cc2)CC1	0.04	.
N/C(=C\C(=O)c1ccc(Br)cc1)C(F)(F)F	-2	-0.55
Clc1cccnc1N1CCOCC1	-0.11	0.1
CCOc1ccc(S)cc1	.	-0.55
C=CCC12CCC(=O)C=C1CCCC2=O (centres undefined)	.	0.85
O=C(CSc1nc(C(F)(F)F)cc(=O)[nH]1)NCc1ccco1	.	1.4
COC(=O)c1ccc(C(Nc2ccccn2)c2ccc3ccc(C)nc3c2O)cc1 (centres undefined)	-0.13	-1.1
C/C(=N\NC(=O)CN1C(=O)COc2ccccc21)c1cc2cc(Cl)ccc2o1	.	-0.3
CCCc1nc2ccccc2c2c1C(=O)N(NC(=O)c1onc(-c3c(Cl)cccc3Cl)c1C(=O)OC)C2=O	-1.2	.
O=S(=O)(Nc1cccc(-c2nnc3n2CCCCC3)c1)c1ccc2c(c1)OCCCO2	.	-0.4
O=C(Cn1nnc(-c2ccccc2)n1)OC1CCOC1=O (centres undefined)	.	-0.2
O=c1c(Cc2ccccc2)c(O)nc2ccccn12	-1.2	2.7
CN(C)c1ccc(CNC(=O)CC2(CC3=NS(=O)(=O)c4ccccc4N3)CCCC2)cc1	-0.31	-0.3
CC1=CS(=O)(=O)c2ccc(Cl)cc21	-0.18	.
Cc1ccc(OS(=O)(=O)c2cc(C)c(Cl)cc2C)c(Br)c1	0.035	.
CCCN(CCC)S(=O)(=O)c1ccc(OC)c2ncccc12	0.33	0.3
C=CCN1C(=O)/C(=C2/C(=O)N(CC=C)c3ccccc32)SC1=S	0.48	0.65
O=C(N1CCc2ccc(S(=O)(=O)N3CCC3)cc2C1)C(F)(F)F	-0.46	.
Cc1nn(Cc2ccccc2Cl)c2sc(C(=O)OCc3nc4ccccc4c(=O)n3CC#N)cc12	.	-0.2
Cc1cc(C(=O)OCC(=O)c2cc(C)n(-c3ccc(Cl)cc3)c2C)no1	.	-0.75
Cn1nc(C(=O)N2CCC(c3ccccc3)C2)c2c1-c1ccsc1CC2 (centres undefined)	0.12	0.2

Remaining list, next part:
SMILES	Ba CapD inh	AID504770
COc1cccc(NC(=S)N(C)c2ccc(O)cc2)c1	.	-0.05
CCn1c(COc2cccc(C)c2)nnc1SCC(=O)N1C(C)CCCC1C (centres undefined)	.	-0.45
Clc1ccc(-c2noc(CSc3ccccc3)n2)cc1	-0.03	-0.35
CCN(CC)C(=O)CSc1nc2ccccc2n1S(=O)(=O)c1ccccc1	0.18	.
CCOC(=O)c1cnc(N2CCN(c3ccccc3)CC2)[nH]c1=O	.	-0.35
Cc1cc(C)nc(-n2cc3c(=O)[nH]c(=S)[nH]c3n2)n1	0.07	-1.6
COc1cc(NC(=O)c2sc3ncn(CC(=O)N4CCC(C)CC4)c(=O)c3c2C)cc(OC)c1OC	-0.88	.
COc1ccc(-n2c(O)c(/C=N/N(C)C)c3ccccc3c2=O)cc1	-0.23	-0.55
CC1(C)OCC(NS(=O)(=O)c2ccccc2Br)C(c2ccccc2)O1 (centres undefined)	0.61	.
CCN(CC)CCNc1c2c(nc3cc(-c4ccc(OC)c(OC)c4)nn13)CCC2	.	-0.4
C=C(C)CN1N=C(C(C)(C)C)CC1=O	.	0.35
CC1=C(C(=O)OCCOc2ccccc2)C(c2ccc(Cl)c(Cl)c2)NC(=O)N1C (centres undefined)	-0.29	.
Cc1ccc2sc(-c3ccc(N4C(=O)C5CC=CCC5C4=O)cc3)nc2c1 (centres undefined)	1.6	-0.35
CCOC(=O)c1ccc(N2C(=O)CC(SCC(=O)Nc3ccc(F)cc3)C2=O)cc1 (centres undefined)	-0.55	.
O=C(NCCc1nnc2ccc(SCC(=O)N3CCCC3)nn12)c1ccccc1	.	0.55
O=C1CCCc2ccccc2N1	-0.77	-0.55
Cc1ccc(C)n1-c1ccc(/C=C(/C#N)S(=O)(=O)C(C)(C)C)cc1	-0.74	0.45
CCCC1(C(=O)OC)NC(c2ccc(OC)c(OC)c2)C2C(=O)N(c3ccc4c(c3)OCO4)C(=O)C21 (centres undefined)	.	-1.6
O=C(OCCN1CCCCC1)c1ccc(F)cc1	-0.13	0.75
Cc1cc(SCC#N)c(Cl)cc1Cl	0.66	.
CCNC(CC(=O)Nc1ccc(O)cc1)C(=O)O (centres undefined)	.	0.65
COc1ccc(C)cc1NC(=O)C(Sc1nnc(C2CC2)n1C)c1ccccc1 (centres undefined)	.	-0.05
Cc1ccc(S(=O)(=O)c2no[n+]([O-])c2S(=O)(=O)c2ccc(C)cc2)cc1	-0.7	0.35
Cc1cc2c3c([nH]c2cc1S(=O)(=O)NC1CC1)CCCC3=O	0.71	0
CNC(=O)n1cc(-c2ccccc2)c(C)n1	0.17	-0.5

Record cards (already shown). Screens in order: Ba CapD inh, AID504770
Listed for Cc1cc(SCC#N)c(Cl)cc1Cl → 0.66, .
Listed for CCN(CC)C(=O)CSc1nc2ccccc2n1S(=O)(=O)c1ccccc1 → 0.18, .

4 compounds already listed, arranged by length of the SMILES, low to high:
SMILES	Ba CapD inh	AID504770
CNC(=O)n1cc(-c2ccccc2)c(C)n1	0.17	-0.5
Cc1nc(C(N)=NC(=O)c2ccccc2)cs1	0.08	-0.85
O=C(NC(=S)Nc1ccccc1Cl)c1ccc(Cl)cc1	0.39	0
CC1(C)OCC(NS(=O)(=O)c2ccccc2Br)C(c2ccccc2)O1 (centres undefined)	0.61	.

The listing picks up, repeating the two entries before the break.
SMILES	Ba CapD inh	AID504770
Cc1cc2c3c([nH]c2cc1S(=O)(=O)NC1CC1)CCCC3=O	0.71	0
CNC(=O)n1cc(-c2ccccc2)c(C)n1	0.17	-0.5
Cc1cccc2nc(CSc3nnc4ccccn34)cn12	-0.44	-0.15
COc1ccc(CCNC(=O)c2ccc3c(=O)n(CCc4ccccc4)c(=O)[nH]c3c2)cc1OC	-0.13	-0.15
Cc1cc(C(=O)CSc2nnc(Cc3ccccc3)o2)c(C)n1CCc1ccccc1	.	-0.8
Cc1cccc(Nc2nc(-c3sc(C)nc3C)cs2)c1	3.8	1.2
Cc1ccc2[nH]c(=O)c(CN(C)S(C)(=O)=O)cc2c1	27	-0.95
Cc1cc2nc(-c3ccc(N=Cc4cccc(C)c4O)cc3)oc2cc1C	-0.35	-0.55
CCn1c(C(=O)N2CCC(C(=O)NCc3ccc(Cl)cc3)CC2)cc2occc21	-0.085	0.1
CCOC(=O)c1sc2nc(C(C)Sc3nnc(C)s3)[nH]c(=O)c2c1C (centres undefined)	.	0.6
CN/N=C/c1ncc(C(F)(F)F)cc1Cl	-0.86	-0.55
CCCCN(C)S(=O)(=O)c1cc(-c2n[nH]c(=O)c3ccccc23)ccc1C	0.045	0.4
Cc1ccc(OCC(=O)Nc2nc3ccccc3s2)c(C)c1	-0.09	0.95
COC(=O)c1sccc1N1C(=O)C=CC1=O	0.26	-0.95
O=S(=O)(Cc1ccc(Cl)cc1Cl)C1CCCCC1O (centres undefined)	-0.45	-0.9
Cc1ccc(Oc2ncccc2NC(=O)CCCC(=O)O)c2c1CCC2	0.58	-0.7
Cc1cc(C)n(CC(O)CON=C2c3ccccc3-c3ccccc32)n1 (centres undefined)	.	-0.65
COc1ccc(C2=NN(C(C)=O)CC2)cc1	5.2	0.3
c1ccc2c(c1)CCCN2c1nc2ccccc2n2cnnc12	-2.1	-0.25
O=C(c1ccco1)N1CCN(C2=Nc3cccc4cccc2c34)CC1	.	-0.7
O=c1[nH]cnc2c1sc1nc(-c3ccco3)c3c(c12)CCCC3	3.3	-0.2
Cc1ccc(S(=O)(=O)Nc2cccc(-c3ccc4nnc(C)n4n3)c2)s1	.	0
BrCC1(c2ccccc2)OCCO1	0.2	0.5
CCn1c(C(Cc2ccccc2)NC(=O)C(C)(C)C)nc2ccccc21 (centres undefined)	0.14	-1.1
O=Cc1ccc(OC2OC(CO)C(O)C(O)C2O)cc1 (centres undefined)	-0.015	.
O=C(Nc1nnc(-c2cccc([N+](=O)[O-])c2)s1)c1ccc(S(=O)(=O)N2CCCCC2)cc1	0.47	.
COc1ccc(C2C(C#N)=C(N)Oc3cc4c(cc32)OCO4)cc1 (centres undefined)	.	-0.45

Continuation:
SMILES	Ba CapD inh	AID504770
Cc1ccccc1NC(=O)C1(N(CC(C)C)C(=O)Cn2nnnc2N)CCCCC1	0.63	0.35
CC(NS(=O)(=O)c1ccccc1)C(=O)NCc1ccc(CN2CCCC2)cc1 (centres undefined)	.	-0.8
Cc1ccc(NC(=O)c2nsc(Cl)c2Cl)cc1	-0.15	-0.4
CCOC(=O)c1cc2c(N)c(C(=O)c3ccccc3)oc2nc1C	-0.2	.
CCOc1ccc(N=c2ssc(SC)c2-c2ccccc2)cc1	0.15	.
CNS(=O)(=O)c1ccc2c3c(cccc13)C(=O)N2	38	.
COC(=O)c1ccccc1N/C=C/C(=O)c1ccc(Br)cc1	0.23	0.05
C/C(=N\OCc1nc(-c2cccc(Cl)c2)no1)c1ccc(Cl)cc1	-0.7	2.1
COC(=O)CN(C1CCCCC1)S(=O)(=O)c1ccccc1	0.01	-1.2
Cc1csc2nc(CS(=O)(=O)c3ccc(Cl)cc3)cn12	-0.59	-0.55
CCOC(=O)c1cc(-c2ccc(C)cc2)n(CCCC(=O)NCc2cccs2)c1	-0.79	0.6
O=C1CC(c2ccccc2O)=NN1	.	-0.45
CN1CCN(c2ccc(Nc3ccnc4ccccc34)cc2)CC1	-1.7	.
COc1ccccc1/C=N/O	.	0.45
CCOc1ccc(C(=O)NCc2ccc3[nH]c4c(c3c2)CCCC4)cc1	70	2.7
CC(C)(C)n1nnnc1C(c1cccnc1)N(Cc1ccccc1)Cc1ccco1 (centres undefined)	.	0.3
Cc1cccc(N2CCn3c2nc2c3c(=O)n(C)c(=O)n2C)c1	0.55	0.85
O=c1[nH]c(=S)[nH]c2c1cnn2-c1ccc(F)cc1	0.58	0.55
CC1CN(c2ncnc3ccsc23)CC(C)O1 (centres undefined)	0.77	0.6
O=[N+]([O-])c1ccc(Cl)c(S(=O)(=O)n2nnc3ccccc32)c1	0.99	.
CCOC(=O)c1cc(C)nc(Sc2ccc(C)cc2)c1C#N	-0.34	-0.1
O=C(Cc1ccccc1)Nc1nonc1-c1ccccc1	0.065	0.45
N#Cc1ccc(CSc2nnc(C3CC3)n2C2CC2)cc1	.	0.4
O=C(NCc1cccnc1)c1nn2c(C(F)(F)F)cc(-c3ccc(F)cc3)nc2c1Cl	0.12	.

Assay outcomes deposited in PubChem BioAssay by ICCB-Longwood Screening Facility, Harvard Medical School.
